Screening data (PubChem BioAssay)
A1 apoptosis 2: compounds inhibiting A1, read as caspase activation; MEF A1-2A-BIM cells, caspase-Glo luminescence, 3 h; percent of clofoctol response, DMSO zero; 24,000 tested, under 10 active; caspase activation, % (concentration not given with the values); AID 2465; in the data active means caspase activation above about 5.9%;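 further: wells of about 30 µL received 50 nL stock; the first replicate is given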
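system = A1-2A-BIM-expressing MEF cells | quantity = 2500 MEF cells/well | dosing = 50 nL compound per well, pinned | schedule = overnight cell settling, then 3 h compound exposure, 37 °C | signal = luminescence from DEVD-luciferin Caspase-Glo reagent, 1:1 in 50 mM HEPES, 1 h RT | read-out = Caspase-3/7 activation, seen as rise in luminescence signal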
* hit, by the source's call; & = joins results of further samples. The list is partial. The share of hits here may be higher or lower than overall.

compound	A1 apoptosis 2
C[C@@H]1CN([C@H](C)CO)C(=O)CCCn2nncc2CO[C@@H]1CN(C)C(=O)Nc1cccc(F)c1	-0.2
O=C1O[C@H](c2ccccc2)[C@H](c2ccccc2)N2[C@H]1[C@@H](C(=O)N1CCN(c3ncccn3)CC1)[C@]1(C(=O)Nc3ccccc31)[C@H]2c1ccc(OCCO)cc1	0.7
C[C@@H]1CN([C@@H](C)CO)C(=O)Cc2cc(N(C)C)ccc2O[C@@H]1CN(C)S(=O)(=O)c1ccccc1	0.7
Cc1noc(C)c1NC(=O)Nc1cccc2c1O[C@@H](CN(C)Cc1ccc(-c3ccccc3)cc1)[C@H](C)CN([C@@H](C)CO)C2=O	-0.7
CC(/C=C/C(=O)NO)=C\c1ccccc1OCc1cn(C[C@@H]2CCCN2S(=O)(=O)c2ccc(C)cc2)nn1	1.0
Cc1noc(C)c1NC(=O)N(C)C[C@@H]1OCCCC[C@H](C)Oc2ccc(NC(=O)Cc3ccccc3)cc2C(=O)N([C@H](C)CO)C[C@@H]1C	-0.8
C[C@H]1CN([C@@H](C)CO)C(=O)c2cccc(NS(=O)(=O)c3cn(C)cn3)c2O[C@H]1CN(C)Cc1ccc(Cl)c(Cl)c1	0.1
C[C@@H]1CN([C@H](C)CO)C(=O)c2cc(NC(=O)CCCN(C)C)ccc2O[C@@H]1CN(C)C(=O)Nc1ccccc1	-0.6
C[C@@H]1CN([C@H](C)CO)C(=O)c2cccc(N(C)C)c2O[C@@H]1CN(C)C(=O)Nc1ccc(C(F)(F)F)cc1	0.2
COc1ccc(CN(C)C[C@@H]2Oc3ccc(NC(=O)CCN4CCOCC4)cc3C(=O)N([C@H](C)CO)C[C@H]2C)cc1	0.5
C[C@@H]1CN([C@H](C)CO)C(=O)c2cc(NC(=O)CCCN(C)C)ccc2O[C@@H]1CN(C)C(=O)Nc1cccc2ccccc12	0.1
C[C@@H]1C=C(C(=O)N2CCCCCCC2)O[C@H](OCc2ccc(CO)cc2)C1	1.0
CC(C)NC(=O)Nc1ccc2c(c1)C(=O)N([C@@H](C)CO)C[C@@H](C)[C@H](CN(C)C(=O)Cc1ccccc1)OCCCC[C@H](C)O2	1.3
C[C@@H]1CN([C@H](C)CO)C(=O)c2cc(NC(=O)CCN3CCOCC3)ccc2O[C@@H]1CN(C)C(=O)Nc1ccccc1	-0.7
COc1cccc(-c2cnc3c(c2)C(=O)N([C@H](C)CO)C[C@H](C)[C@H](CN(C)S(C)(=O)=O)O3)c1	0.6
Cc1noc(C)c1NC(=O)Nc1ccc2c(c1)C(=O)N([C@@H](C)CO)C[C@H](C)[C@H](CN(C)C(=O)Nc1ccc(F)cc1)O2	0.2
C[C@H]1CN([C@@H](C)CO)C(=O)Cc2cc(NC(=O)CCN3CCOCC3)ccc2O[C@H]1CN(C)C(=O)Nc1ccc2c(c1)OCO2	-0.9
C[C@@H]1CCCCO[C@@H](CN(C)Cc2ccc(Cl)c(Cl)c2)[C@@H](C)CN([C@@H](C)CO)C(=O)c2cc(NS(C)(=O)=O)ccc2O1	-1.1
CNC[C@@H]1Oc2ccc(NC(=O)Cn3cnnn3)cc2C(=O)N([C@H](C)CO)C[C@H]1C	-1.9
C[C@@H]1CCCCO[C@@H](CN(C)CC2CCCCC2)[C@H](C)CN([C@H](C)CO)C(=O)c2cc(NC(=O)Nc3ccccc3)ccc2O1	1.4
CCCC(O)C#Cc1cnc2c(c1)C(=O)N([C@H](C)CO)C[C@H](C)[C@H](CN(C)C(=O)NC(C)C)O2 (stereo partly specified)	0.0
COc1cc(/C=N/NC(=O)c2cccc(C(=O)NO)c2)c(Br)cc1O	1.6
CCO[C@H]1OC(C(=O)NC2CC2)=C[C@@H](c2ccc(Br)cc2)[C@@H]1CCCO	1.2
C[C@H](CO)N1C[C@H](C)[C@H](CN(C)S(=O)(=O)c2cn(C)cn2)Oc2ncc(C#Cc3ccccc3)cc2C1=O	-0.1
C[C@H](CO)N1C[C@H](C)[C@H](CN(C)Cc2ccc3c(c2)OCO3)Oc2c(NS(C)(=O)=O)cccc2C1=O	-0.1

A section of the results above, for reference:
compound	A1 apoptosis 2
C[C@H](CO)N1C[C@H](C)[C@H](CN(C)S(=O)(=O)c2cn(C)cn2)Oc2ncc(C#Cc3ccccc3)cc2C1=O	-0.1
C[C@H](CO)N1C[C@H](C)[C@H](CN(C)Cc2ccc3c(c2)OCO3)Oc2c(NS(C)(=O)=O)cccc2C1=O	-0.1

Already shown: an excerpt of the list.
compound	A1 apoptosis 2
COc1ccc(CN(C)C[C@@H]2Oc3ccc(NC(=O)CCN4CCOCC4)cc3C(=O)N([C@H](C)CO)C[C@H]2C)cc1	0.5
C[C@@H]1CN([C@H](C)CO)C(=O)c2cc(NC(=O)CCCN(C)C)ccc2O[C@@H]1CN(C)C(=O)Nc1cccc2ccccc12	0.1
C[C@@H]1C=C(C(=O)N2CCCCCCC2)O[C@H](OCc2ccc(CO)cc2)C1	1.0
CC(C)NC(=O)Nc1ccc2c(c1)C(=O)N([C@@H](C)CO)C[C@@H](C)[C@H](CN(C)C(=O)Cc1ccccc1)OCCCC[C@H](C)O2	1.3
C[C@@H]1CN([C@H](C)CO)C(=O)c2cc(NC(=O)CCN3CCOCC3)ccc2O[C@@H]1CN(C)C(=O)Nc1ccccc1	-0.7
COc1cccc(-c2cnc3c(c2)C(=O)N([C@H](C)CO)C[C@H](C)[C@H](CN(C)S(C)(=O)=O)O3)c1	0.6
Cc1noc(C)c1NC(=O)Nc1ccc2c(c1)C(=O)N([C@@H](C)CO)C[C@H](C)[C@H](CN(C)C(=O)Nc1ccc(F)cc1)O2	0.2
C[C@H]1CN([C@@H](C)CO)C(=O)Cc2cc(NC(=O)CCN3CCOCC3)ccc2O[C@H]1CN(C)C(=O)Nc1ccc2c(c1)OCO2	-0.9
C[C@@H]1CCCCO[C@@H](CN(C)Cc2ccc(Cl)c(Cl)c2)[C@@H](C)CN([C@@H](C)CO)C(=O)c2cc(NS(C)(=O)=O)ccc2O1	-1.1
CNC[C@@H]1Oc2ccc(NC(=O)Cn3cnnn3)cc2C(=O)N([C@H](C)CO)C[C@H]1C	-1.9
C[C@@H]1CCCCO[C@@H](CN(C)CC2CCCCC2)[C@H](C)CN([C@H](C)CO)C(=O)c2cc(NC(=O)Nc3ccccc3)ccc2O1	1.4
CCCC(O)C#Cc1cnc2c(c1)C(=O)N([C@H](C)CO)C[C@H](C)[C@H](CN(C)C(=O)NC(C)C)O2 (stereo partly specified)	0.0
COc1cc(/C=N/NC(=O)c2cccc(C(=O)NO)c2)c(Br)cc1O	1.6
CCO[C@H]1OC(C(=O)NC2CC2)=C[C@@H](c2ccc(Br)cc2)[C@@H]1CCCO	1.2
C[C@H](CO)N1C[C@H](C)[C@H](CN(C)S(=O)(=O)c2cn(C)cn2)Oc2ncc(C#Cc3ccccc3)cc2C1=O	-0.1

Continuation.
compound	A1 apoptosis 2
COc1ccc(NC(=O)N(C)C[C@H]2OCCCC[C@H](C)Oc3ccc(NS(=O)(=O)c4c(C)noc4C)cc3C(=O)N([C@@H](C)CO)C[C@H]2C)cc1	-1.0
C[C@@H]1CN([C@@H](C)CO)C(=O)c2cccc(NC(=O)C3CCCCC3)c2O[C@@H]1CN(C)C(=O)NC1CCCCC1	0.4
CNC[C@@H]1Oc2ccc(NC(=O)Nc3c(C)noc3C)cc2CC(=O)N([C@H](C)CO)C[C@@H]1C	-0.1
C[C@@H]1CN([C@@H](C)CO)C(=O)c2cc(NS(=O)(=O)c3cn(C)cn3)ccc2O[C@H]1CN(C)Cc1ccc(C(F)(F)F)cc1	-0.7
C[C@@H]1CN([C@@H](C)CO)C(=O)c2cc(NC(=O)CCCN(C)C)ccc2O[C@@H](C)CCCCO[C@@H]1CN(C)Cc1ccc2c(c1)OCO2	0.6
C[C@H](CO)N1C[C@H](C)[C@@H](CN(C)Cc2ccc(C(=O)Nc3ccccc3N)cc2)Oc2ccc(NC(=O)C3CC3)cc2C1=O	0.3
C[C@@H]1CN([C@H](C)CO)C(=O)c2cc(NC(=O)Nc3ccc(F)cc3)ccc2O[C@H]1CN(C)C(=O)Nc1cccc2ccccc12	-1.3
C[C@@H]1CN([C@@H](C)CO)C(=O)c2cc(NC(=O)CCN3CCOCC3)ccc2O[C@@H]1CN(C)C(=O)Nc1ccccc1	-0.4
C[C@H](CO)N1C[C@H](C)[C@H](CN(C)Cc2ccc3c(c2)OCO3)OCCCC[C@H](C)Oc2ccc(NC(=O)C3CCCCC3)cc2C1=O	-1.0
COc1ccc(NC(=O)Nc2ccc3c(c2)C(=O)N([C@H](C)CO)C[C@@H](C)[C@H](CN(C)C(=O)Nc2ccccc2)O3)cc1	-1.0
Cc1ccc(S(=O)(=O)N(C)C[C@H]2Oc3ccc(NS(=O)(=O)c4cn(C)cn4)cc3C(=O)N([C@@H](C)CO)C[C@H]2C)cc1	-0.8
C[C@H]1CN([C@@H](C)CO)C(=O)c2cccc(NS(=O)(=O)c3cccs3)c2O[C@H]1CN(C)Cc1ccc2c(c1)OCO2	-0.1
C[C@H](CO)N1C[C@H](C)[C@H](CN(C)S(=O)(=O)c2ccc(Cl)cc2)Oc2c(NC(=O)Nc3ccc(C(F)(F)F)cc3)cccc2C1=O	0.2
C[C@@H]1CN([C@H](C)CO)C(=O)c2cccc(NC(=O)c3ccncc3)c2O[C@H]1CN(C)CC1CC1	0.7
Cc1noc(C)c1NC(=O)N(C)C[C@@H]1Oc2ccc(NC(=O)Nc3ccccc3)cc2C(=O)N([C@@H](C)CO)C[C@H]1C	1.1
Cc1ccc(S(=O)(=O)N(C)C[C@@H]2Oc3ccc(NC(=O)Nc4ccc5c(c4)OCO5)cc3CC(=O)N([C@H](C)CO)C[C@@H]2C)cc1	-0.8
C[C@@H]1CN([C@H](C)CO)C(=O)c2cccc(NC(=O)Nc3ccc(C(F)(F)F)cc3)c2O[C@H]1CN(C)Cc1ccncc1	-1.0
C[C@@H]1CN([C@@H](C)CO)C(=O)c2cccc(NS(C)(=O)=O)c2O[C@H]1CN(C)Cc1ccc(Cl)c(Cl)c1	-1.0
C=CCOc1ccccc1/C=N/NC(=O)CCCCCCC(=O)Nc1ccccc1O	0.9
C[C@@H]1CCCCO[C@H](CN(C)Cc2ccc(C(=O)O)cc2)[C@H](C)CN([C@@H](C)CO)C(=O)c2cc(NC(=O)CCCN(C)C)ccc2O1	-0.4
Cc1ccc(S(=O)(=O)Nc2ccc3c(c2)C(=O)N([C@@H](C)CO)C[C@@H](C)[C@H](CN(C)C(=O)NC(C)C)OCCCC[C@@H](C)O3)cc1	0.1
CNC[C@@H]1OCCCC[C@@H](C)Oc2ccc(NC(=O)c3ccccc3)cc2C(=O)N([C@H](C)CO)C[C@H]1C	0.0
C[C@H]1CCCCO[C@H](CN(C)S(=O)(=O)c2ccc(Cl)cc2)[C@@H](C)CN([C@@H](C)CO)C(=O)c2cc(NC(=O)Nc3ccc(C(F)(F)F)cc3)ccc2O1	-0.2
Cc1noc(C)c1NC(=O)Nc1ccc2c(c1)C(=O)N([C@H](C)CO)C[C@@H](C)[C@H](CN(C)C(=O)Nc1ccc(C(F)(F)F)cc1)OCCCC[C@@H](C)O2	-0.2
C[C@@H]1CCCCO[C@H](CN(C)C(=O)c2ccccc2)[C@H](C)CN([C@@H](C)CO)C(=O)c2cc(NS(C)(=O)=O)ccc2O1	-0.2

compound	A1 apoptosis 2
C[C@@H]1CCCCO[C@H](CN(C)C(=O)Nc2cccc3ccccc23)[C@@H](C)CN([C@@H](C)CO)C(=O)c2cc(NC(=O)c3ccncc3)ccc2O1	0.4
O=C(O)C1=C[C@H](c2ccc3c(c2)OCO3)C[C@H](OCc2ccc(CO)cc2)O1	-1.4&-1.4
O=C(NO)c1cccc(C(=O)N/N=C/c2c(F)c(F)c(F)c(F)c2F)c1	-1.2
C[C@@H]1CN([C@@H](C)CO)C(=O)c2cc(NC(=O)Nc3ccc(F)cc3)ccc2O[C@@H]1CN(C)C	0.6
Cc1noc(C)c1S(=O)(=O)Nc1ccc2c(c1)C(=O)N([C@H](C)CO)C[C@H](C)[C@@H](CN(C)C(=O)Cc1ccccc1)OCCCC[C@H](C)O2	-0.2
Cc1ccc(S(=O)(=O)Nc2cccc3c2O[C@@H](CN(C)S(=O)(=O)c2cn(C)cn2)[C@@H](C)CN([C@@H](C)CO)C3=O)cc1	-0.5
COc1ccc(CN(C)C[C@H]2OCCCC[C@H](C)Oc3ccc(NS(=O)(=O)c4ccc(OC)cc4)cc3C(=O)N([C@H](C)CO)C[C@@H]2C)cc1	-0.7
COc1ccc(S(=O)(=O)Nc2ccc3c(c2)C(=O)N([C@H](C)CO)C[C@H](C)[C@H](CN(C)C(=O)NC2CCCCC2)O3)cc1	1.7
CC(C)NC(=O)N(C)C[C@H]1OCCCC[C@@H](C)Oc2ccc(NS(C)(=O)=O)cc2C(=O)N([C@@H](C)CO)C[C@H]1C	-0.4
COc1ccc(CN(C)C[C@H]2Oc3ccc(NC(=O)Nc4ccccc4)cc3C(=O)N([C@H](C)CO)C[C@H]2C)cc1	0.1
COc1ccc(CN(C)C[C@@H]2Oc3ccc(NC(=O)CCC(F)(F)F)cc3C(=O)N([C@H](C)CO)C[C@@H]2C)cc1	-0.1
C[C@H]1CN([C@@H](C)CO)C(=O)Cc2cc(NC(=O)CCN3CCOCC3)ccc2O[C@H]1CN(C)S(=O)(=O)c1ccccc1	-1.3
